TsaE inh = qHTS Assay for Inhibitors of YjeE; 71,000 tested, 0.05% active; AID 605, 2007; tRNA threonylcarbamoyladenosine biosynthesis protein TsaE (Escherichia coli (strain …; purified YjeE, fluorescence polarisation of a bound ADP probe; Potency, µM; active = well fitted falling curve; inconclusive = weaker or top-dose-only fall, or a rising curve; inactive = flat or poorly fitted curve;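 further: top concentration of the series not given in the record; excess ADP was the control for the full effect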
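Purified YjeE (10 uM) with BODIPY Texas Red-labeled ADP probe (2 uM); compounds pin-transferred, 15 min at room temperature. Binding inhibition read as decreased fluorescence polarization; ADP titration as control.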
PK Bst = Pyruvate Kinase | AID 361, 2006 | Potency, µM | partly purified Bacillus stearothermophilus pyruvate kinase, luminescence ATP production; ribose 5-phosphate activator present at AC10 | 51,000 tested, 1.2% active; in the data active means potency below about 11 µM; inconclusive means mostly about 12 µM to 25 µM; inactive means weaker than that;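 the screen sought inhibitors and activators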;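 further: potency means the concentration at half of the fitted maximal effect; scaled between full activation by ribose 5 phosphate and full inhibition by luteolin; about four in five hits inhibit and the cells do not say which; series up to 57 µM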
* marks the source's active call; other numbers are inactive results; i = inactive; u = inconclusive; x = no result given. The list is partial; count on the stated rates, not on these rows.

Sequence of screens – PK Bst, TsaE inh
> O=C(NCCC(=O)N1CCNC1=O)OCc1ccccc1
    >57, i
> COc1ccc(-c2cnn(-c3ccccc3)c2N)cc1OC
    x, i
> CC(=O)C1=C(C)Nc2ncnn2C1c1ccc(Cl)cc1Cl (centres undefined)
    i, i
> COC(=O)c1ccccc1NC(=O)CSc1nnc(-c2ccoc2C)n1C
    >57, i
> Cc1nnc(SC(C)C(=O)Nc2ccc(S(=O)(=O)N3CCCCC3)cc2)s1 (centres undefined)
    >57, i
> Cc1cc(NC(=O)CN2CCCC2c2nc3ccccc3s2)no1 (centres undefined)
    >57, i
> Cn1cccc1C(=O)Nc1nc(-c2ccccn2)cs1
    i, i
> CCN(CC)C(=O)c1cn(C)c(=O)c2cc(OC)c(OC)cc12
    >57, i
> COCCn1c(=O)c(-c2ccccc2)nc2cnc(N3CCOCC3)nc21
    x, i
> CCCNC(=O)C1CCN(c2nc(C)cc(C)n2)CC1
    >57, i
> O=C(c1ccccc1NS(=O)(=O)c1cccs1)N1CCCC1
    >57, i
> COc1ccc(NC(=S)Nc2ccccc2)cc1
    x, i
> CCOC(=O)N1CCC2(CC1)C(C#N)=C(N)Oc1n[nH]c(CSc3ccc(C)cc3)c12
    >57, i
> COc1ccccc1C(=O)NCCCN1CCCC1=O
    >57, i
> O=C1OC(=O)c2ccccc21
    x, i
> C=CCn1cnc2c(c1=O)c1nc3ccccc3nc1n2/N=C/c1cccc(OC)c1OC
    u, i
> O=C(c1oc(=O)c2ccccc2c1-c1ccccc1)N1CCN(C2CCCCC2)CC1
    x, i
> O=C(CCCn1c(=O)c2sccc2n(CC(=O)OCc2ccccc2)c1=O)NCc1ccco1
    >57, i
> CCOC(=O)CC1=C(C(=O)OCC)C(c2ccc(C)o2)C(C#N)=C(N)O1 (centres undefined)
    >57, i
> CC(C)=C[C@H]1[C@@H](C(=O)Oc2ccccc2C(C)C)C1(C)C
    x, i

Next part, starting with the last 3 of the part before.
Sequence of screens – PK Bst, TsaE inh
> O=C(CCCn1c(=O)c2sccc2n(CC(=O)OCc2ccccc2)c1=O)NCc1ccco1
    >57, i
> CCOC(=O)CC1=C(C(=O)OCC)C(c2ccc(C)o2)C(C#N)=C(N)O1 (centres undefined)
    >57, i
> CC(C)=C[C@H]1[C@@H](C(=O)Oc2ccccc2C(C)C)C1(C)C
    x, i
> Cc1noc(C(=O)N2CC3(C)CC2CC(C)(C)C3)c1Cl (centres undefined)
    x, i
> O=S(=O)(c1cccs1)N1CCN(CC(O)COC2CCCc3ccccc32)CC1 (centres undefined)
    >57, i
> COc1ccccc1-c1c(C#N)c(SCC(=O)N2CCCC2)nc(C)c1C(N)=O
    >57, i
> Cn1c(C(=O)Nc2ccc3c(c2)OCCO3)cc2sccc21
    3.01*, i
> COc1ccc(OC)c(C(=O)CSc2nnc(Cc3cccs3)n2C)c1
    >57, i
> CCOC(=O)CSc1nnc(CNC(=O)c2cccs2)n1-c1cc(C)ccc1C
    >57, i
> Nc1nonc1-c1noc(CCCCCN2C(=O)c3ccccc3C2=O)n1
    >57, i
> COC(=O)c1c(NC(=O)c2cccs2)sc2c1CCC(C)C2 (centres undefined)
    x, i
> CCOc1ccccc1OCCCCCc1c(C)n[nH]c1C
    >57, i
> O=C(CS(=O)(=O)c1ccccc1)Nc1nc(-c2ccccc2)cs1
    >57, i
> COc1cccc(-c2ccc3ncnc(NCCN4CCOCC4)c3c2)c1
    x, i
> CCOC(=O)N1CCC(NC(=O)c2ccc(NC(=O)C3CCCO3)cc2)CC1 (centres undefined)
    >57, i
> CCc1c(C(=O)Nc2ccncc2)csc1C
    >57, i
> COc1ccc(S(=O)(=O)Nc2nncs2)cc1
    >57, i
> O=C(NCc1ccccc1)C1C2C=CC3(CN(Cc4cccnc4)C(=O)C13)O2 (centres undefined)
    >57, i
> Cc1c(N(C)C)c(=O)n(-c2ccccc2)n1C
    x, i
> Cc1cc(NC(=O)CCC(=O)N(c2cccnc2)C(C(=O)NC2CCCC2)c2ccccc2)no1 (centres undefined)
    >57, i
> Cc1nc(C)n(C(=O)N(c2ccccc2)c2ccccc2)n1
    >57, i
> CCCOc1ccccc1C1C(C(=O)OC)=CN(C(C)C)C=C1C(=O)OC
    >57, i
> CC[C@H](C)[C@@H]1O[C@]2(CC[C@@H]1C)C[C@H]1C[C@H](CC=C(C)[C@@H](O[C@H]3C[C@H](OC)[C@H](O[C@H]4C[C@H](OC)[C@H](O)[C@H](C)O4)[C@H](C)O3)[C@@H](C)C=CC=C3CO[C@@H]4[C@@H](O)C(C)=C[C@H](C(=O)O1)[C@@]34O)O2
    x, i

(cont.)
Sequence of screens – PK Bst, TsaE inh
> COc1ccccc1N1CCN(C(CNC(=O)c2ccco2)c2cccnc2)CC1 (centres undefined)
    x, i
> COc1ccc(N2C(=O)C3CCCN3C2c2cc(OC)c(OC)cc2OC)cc1 (centres undefined)
    x, i
> Cc1cc(C)n(-c2nc3c(c(=O)[nH]c(=O)n3C)n2CC(O)COc2ccccc2)n1 (centres undefined)
    >57, i
> CC(C)c1nnc(NC(=O)CCC(=O)N2CCN(Cc3ccccc3)CC2)s1
    >57, i
> CCc1ccc2[nH]c(=O)c(C(c3nnnn3CC3CCCO3)N3CCN4CCCC4C3)cc2c1 (centres undefined)
    >57, i
> O=CNCCCc1nc2ccccc2n1Cc1ccccc1
    >57, i
> CCC(=O)Nc1c(-c2ccc(OC)cc2)c(=O)c2ccccc2n1C
    >57, i
> N#Cc1cnc(Nc2nc3ccccc3o2)nc1-c1ccccc1
    >57, i
> COC(=O)C(C(=O)Nc1ncccn1)C1CCCCCC1 (centres undefined)
    >57, i
> CCOC(=O)N1CCN(C(=O)C2CCCN(S(=O)(=O)c3cccnc3)C2)CC1 (centres undefined)
    x, i
> COc1ccc(NC(=O)c2cnc3sccn3c2=O)cc1OC
    x, i
> O=C(NCCCN1CCCC1=O)c1cncc(Br)c1
    >57, i
> O=C(/C=C/c1ccc(O)c(O)c1)OC1C[C@](O)(C(=O)O)C[C@@H](O)[C@H]1O (some centres undefined)
    x, i
> O=C(NCCCc1ccccc1)c1ccccc1O
    x, i
> CCOC(=O)N1CCc2c(sc(NC(=O)c3ccc(Cl)s3)c2C(N)=O)C1
    x, i
> O=C(c1ccc(N2CCCCS2(=O)=O)cc1)N1CCN(c2ccc(N3CCOCC3)nn2)CC1
    x, i
> CCCCN(CC)Cc1c(C)[nH]c2ccccc2c1=O
    >57, i
> O=S(=O)(NCC(c1cccnc1)N1CCN(c2ccc(F)cc2)CC1)c1ccccc1 (centres undefined)
    >57, i
> COc1ccc(Cn2c(=O)[nH]c3cc(C(=O)NCc4ccc5c(c4)OCO5)ccc3c2=O)cc1
    >57, i
> O=C(NCC1CCCO1)c1cnn2c1NC(c1ccccc1)CC2C(F)(F)F (centres undefined)
    >57, i

The listing continues.
Sequence of screens – PK Bst, TsaE inh
> c1ccc(-n2cccc2CNC2CCCCC2)cc1
    >57, i
> CN(C(=O)c1ccccn1)c1nnc(-c2ccccn2)s1
    i, i
> O=S(=O)(c1ccc(Cl)s1)N1CCN(Cc2ccccc2)CC1
    >57, i
> CC1(C)NC(=O)N(CC(O)CN(Cc2ccccc2)Cc2ccccc2)C1=O (centres undefined)
    >57, i
> O=S(=O)(c1ccc(F)c(F)c1)N1CCN(Cc2ccc3c(c2)OCO3)CC1
    x, i
> O=S(=O)(c1ccc(-c2csc(-c3cccnc3)n2)cc1)N1CCCC1
    >57, i
> CC(C)CCOC(=O)C1C2C=CC3(CN(Cc4cccs4)C(=O)C13)O2 (centres undefined)
    x, i
> O=P(O)(O)c1ccccc1OCc1ccccc1
    >57, i
> CCCSc1nnc2n(Cc3ccccc3)c(=O)c3c4c(sc3n12)CCC4
    >25.6, x
> CCN1CCCC1CNC(=O)c1c(O)c2c([nH]c1=O)CCCC2 (centres undefined)
    >57, i
> Cc1ccc(-c2nnc(CSc3nnc4c5c(C)c(C)sc5nc(C(C)C)n34)o2)cc1
    >57, i
> O=C(NCCN1CCCC1)C1CCN(S(=O)(=O)N2CCC3(CC2)OCCO3)CC1
    >57, i
> O=C(CN1CCCC1)N1CCCc2c1c(=O)oc1ccc(OCc3ccccc3)cc21
    x, i
> O=C(CSc1nnc(-c2ccco2)n1Cc1ccccc1)OC1CCCCC1
    x, i
> CCn1c(=O)n(CC)c2cc(S(=O)(=O)N3CCc4ccccc43)ccc21
    >57, i
> CC(C)NC(=O)CSc1nc2ccccc2n1-c1ccccc1
    >57, i
> CCCNC[C@H](O)COc1ccccc1C(=O)CCc1ccccc1
    x, i
> CSc1nc(-c2ccccc2)nc(N2CCN(C)CC2)c1C(C)=O
    x, i
> COc1ccc(/C=C(\C#N)C(N)=O)cc1OC
    x, i
> CCOc1ccc(NS(=O)(=O)c2ccc(NS(C)(=O)=O)cc2)cc1
    x, i

Further results
Sequence of screens – PK Bst, TsaE inh
> O=C(Nc1nnc(C2CCCCC2)s1)c1cccs1
    >57, i
> Cc1cccc(-c2nnc(SCC#N)n2-c2ccccc2)c1
    >57, i
> Cc1cccc(OCc2nnc(SCC(=O)N3CCN(C(=O)c4ccco4)CC3)n2C)c1C
    >57, i
> CC(C)(C)NC(=O)C(c1ccco1)N(Cc1ccc2c(c1)OCO2)C(=O)Cn1nnc2ccccc21 (centres undefined)
    >57, i
> O=C(O)CSc1nc2ccc(Cl)cc2[nH]1
    >57, i
> Cc1nnc(SCCN2CCOCC2)n1-c1cccc(Cl)c1
    >57, i
> COC(=O)C1(C)NC(c2cccs2)C2C(=O)N(c3ccc(F)cc3)C(=O)C21 (centres undefined)
    >57, i
> COc1ccc(NC(=O)C2=C(C)Nc3ncnn3C2c2ccccc2C(F)(F)F)c(OC)c1 (centres undefined)
    >57, i
> CCC1c2ccc(C)n2CCN1C(=O)Nc1ccccc1OC (centres undefined)
    x, i
> CC1CCCN(CCCNC(=O)CCn2nc(-c3ccccc3)ccc2=O)C1 (centres undefined)
    >57, i
> COc1ccccc1C(=O)Nc1ccc(N2CCN(S(C)(=O)=O)CC2)cc1
    x, i
> CCn1cc(C(=O)O)c(=O)c2cc(F)c(N3CCN(C(=O)Nc4ccccc4)CC3)cc21
    >57, i
> O=C(COC(=O)c1ccco1)NCc1cccs1
    >57, i
> COc1cc2c(cc1NC(=O)Cn1cnc3c1c(=O)n(C)c(=O)n3C)oc1ccccc12
    x, i
> O=C(NCCN1CCOCC1)c1ccc(CS(=O)(=O)c2ccc(Cl)cc2)o1
    >57, i
> Nc1nc2ccc([N+](=O)[O-])cc2s1
    x, i
> COc1cc(NC(=O)c2cccs2)c(C(=O)OCC(=O)NCc2ccco2)cc1OC
    >57, i
> CC(=O)Cc1nsc(Nc2ccc3c(c2)OCCO3)n1
    >11.4, i
> Fc1ccccc1-c1nc(-c2ccccc2)no1
    5.75*, i
> Nc1nc(-c2cccnc2)nn1C(=O)Cc1ccccc1
    >57, i

Further compounds:
Sequence of screens – PK Bst, TsaE inh
> CCS(=O)(=O)N1CCC(C(=O)NCc2ccccc2OC)CC1
    >57, i
> CN1CCN(c2cc3c(c4c2[nH]c2ccccc24)C(=O)CC(C)(C)C3)CC1
    x, i
> Cc1ccc(NC(=O)CN(C)S(=O)(=O)c2cccc3nsnc23)cc1Cl
    >57, i
> NCCC[C@@H](CC(=O)N[C@@H]1CCCC[C@H]1C(=O)N[C@H](CC(=O)N[C@@H](CCC(=O)O)CC(=O)O)Cc1ccccc1)NC(=O)C[C@H](Cc1ccccc1)NC(=O)[C@@H]1CCCC[C@H]1N
    x, i
> c1ccc(-c2cc(N3CCCCC3)ncn2)cc1
    x, i
> COCCN1C(=O)c2oc3c(C)cc(C)cc3c(=O)c2C1c1cccc(O)c1 (centres undefined)
    x, i
> Clc1ccc(-c2nc(NCCN3CCOCC3)c3ccccc3n2)cc1
    x, i
> CC1CCN(C(=O)CSc2nnc(Cc3cccn3C)n2-c2ccc(F)cc2)CC1
    x, i
> Cn1c(=O)c2c(nc(N3CCN(Cc4ccccc4)CC3)n2CC(=O)c2ccccc2)n(C)c1=O
    >25.6, x
> CCN(CCNC(=O)C1CCN(Cc2nc(-c3cccc(Cl)c3)oc2C)CC1)c1ccccc1
    >57, i
> COc1ccc(-c2noc(-c3ccccc3C(=O)NCc3ccco3)n2)cc1OC
    >57, i
> Cc1noc(C)c1-c1ccc2ncnc(NCc3cccnc3)c2c1
    x, i
> COc1cccc(N2CCN(C(=O)c3[nH]c(C)c(C(C)=O)c3C)CC2)c1
    >57, i
> CN1CCc2ccccc2Cc2[nH]c3ccccc3c2CC1
    x, i
> CCN(C(=O)CN1CCN(c2ccccc2OC)CC1)c1c(N)n(Cc2ccccc2)c(=O)[nH]c1=O
    >57, i
> COc1cc(C2C(C(=O)c3ccc(C)o3)=C(O)C(=O)N2CCc2ccccc2)ccc1O (centres undefined)
    >57, i
> O=C(c1ccccc1)C1C(=O)c2ccccc2C1=O
    >57, i
> O=C(COC(=O)c1cccs1)NC1CCCCC1
    >57, i
> COc1ccc(CCN=CC2=C(O)CCCC2=O)cc1OC
    x, i

Arranged by length of the SMILES (largest number first): three of the compounds above
Sequence of screens – PK Bst, TsaE inh
> COc1cccc(N2CCN(C(=O)c3[nH]c(C)c(C(C)=O)c3C)CC2)c1
    >57, i
> COCCN1C(=O)c2oc3c(C)cc(C)cc3c(=O)c2C1c1cccc(O)c1 (centres undefined)
    x, i
> Clc1ccc(-c2nc(NCCN3CCOCC3)c3ccccc3n2)cc1
    x, i

Given comma-delimited: entries from further up
smiles,PK Bst,TsaE inh
c1ccc(-c2cc(N3CCCCC3)ncn2)cc1,x,i
CCN(CCNC(=O)C1CCN(Cc2nc(-c3cccc(Cl)c3)oc2C)CC1)c1ccccc1,>57,i

Screening results from PubChem.
